RGS16-Gao HTS: modulates binding between human RGS16 and Galphao; AID 1441; O15492+P09471; bead-based flow cytometry RGS16-Galphao binding, fluorescence; actives lie on both sides; binding response (% of control), % at 10 µM; actives 0.38% (n = 220,000);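 active = below 25% or above 175%, edge rows of some plates excepted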;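 also: Galphao activated by GDP with aluminum fluoride before binding; 100% = wells without compound and 0% = beads without RGS; some results beyond the cut were filed as inactive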
Target sequence (O15492 whole entry, looked up): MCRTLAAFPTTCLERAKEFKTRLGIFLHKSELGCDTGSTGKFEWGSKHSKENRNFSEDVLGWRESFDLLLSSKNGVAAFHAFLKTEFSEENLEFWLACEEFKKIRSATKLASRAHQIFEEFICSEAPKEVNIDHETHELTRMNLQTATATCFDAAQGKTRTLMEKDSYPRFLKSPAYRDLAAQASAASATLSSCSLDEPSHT
Target sequence (P09471 whole entry, looked up): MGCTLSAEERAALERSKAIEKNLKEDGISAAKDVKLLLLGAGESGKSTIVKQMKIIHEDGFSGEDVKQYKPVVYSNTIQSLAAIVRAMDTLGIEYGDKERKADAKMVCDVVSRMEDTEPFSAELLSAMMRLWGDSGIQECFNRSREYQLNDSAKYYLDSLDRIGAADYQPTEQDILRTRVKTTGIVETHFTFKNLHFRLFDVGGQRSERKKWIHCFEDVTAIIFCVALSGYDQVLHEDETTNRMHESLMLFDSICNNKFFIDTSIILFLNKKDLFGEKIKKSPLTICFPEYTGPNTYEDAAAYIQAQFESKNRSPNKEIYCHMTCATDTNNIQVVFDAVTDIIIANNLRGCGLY
PKD1 kinase inh: blocks activity of human protein kinase D1. PKD1 kinase fluorescence polarization assay. inhibition, %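 (about 10 µM by stock and volumes)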. actives 0.056% (n = 200,000);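 active = inhibition of 50% or more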;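 also: controls were vehicle for no effect and a reference inhibitor for full effect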
Insulin prom inh: TRM-6 insulin promoter activity inhibition; actives 0.9% (n = 130,000); inhibition, % at 2 µM; AID 1273; TRM-6 cells (human fetal islet line), insulin promoter-eGFP reporter, imaging; reporter expression induced with tamoxifen;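 active = inhibition above the mean plus 3 SD, with well images judged a real hit on visual review, cut at about 60% in these data, passing the limit was not always enough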
GALR2 agonist: activates the human galanin receptor 2 | O43603 | GALR2-expressing cells, agonist activation read-out | activation, %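 (tested at 5 µM)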 | actives 0.48% (n = 140,000) | AID 803;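 active = above mean plus 3 SD of all compounds, about 5% in these data, not always enough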;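 also: 0% = vehicle buffer wells and 100% = reference agonist at full effect; tested in CHO reporter cells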
Target sequence (O43603 whole entry, looked up): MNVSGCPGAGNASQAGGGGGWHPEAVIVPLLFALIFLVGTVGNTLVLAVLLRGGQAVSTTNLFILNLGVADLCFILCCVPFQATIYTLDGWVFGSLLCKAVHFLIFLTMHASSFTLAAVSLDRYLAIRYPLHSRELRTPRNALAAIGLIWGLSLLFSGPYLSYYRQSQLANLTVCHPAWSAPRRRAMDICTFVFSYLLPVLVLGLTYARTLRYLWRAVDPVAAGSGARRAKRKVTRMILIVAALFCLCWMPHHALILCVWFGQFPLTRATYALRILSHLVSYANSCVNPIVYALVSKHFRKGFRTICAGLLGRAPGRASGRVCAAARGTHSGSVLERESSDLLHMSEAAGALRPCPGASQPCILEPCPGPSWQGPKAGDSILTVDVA
HSV augment: increases HSV replication in cells. HSV replication augmentation in cells, fold increase. maximum fold increase. actives 0.005% (n = 220,000). AID 1956;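 active = peak rise of 1.5-fold or more in the series; tested in PC3 cells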;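 also: first round at 10 µM; read as green reporter fluorescence; hits show the peak of a series up to 25 µM; 1 = signal of infected wells without compound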
Insulin prom inh cell count: further read-out of Insulin prom inh, marked with its call; normalized cell count, %; measured here: cell count, toxicity; reference of the scale not given here;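 cells exposed to compound for 48 h; stained nuclei by imaging scaled within each plate; lower means fewer cells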
HSV augment primary fold: also measured in HSV augment; calls as there; fold increase; compound at 10 µM; measured here: primary screen fold increase 10 uM; tested in PC3 cells;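 GFP signal in the first replicate; 1 = infected wells without compound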
* marks the source's active call; other numbers are inactive results; i = inactive; . = not tested or not shown. Random draw from the library (roughly 1.3% active in at least one column).

SMILES	RGS16-Gao HTS	PKD1 kinase inh	Insulin prom inh	Insulin prom inh cell count	GALR2 agonist	HSV augment	HSV augment primary fold
Cc1ccc2[nH]c(=O)c(CN(CCN3CCOCC3)C(=O)Nc3ccccc3F)cc2c1	97	-9	5	63	-0.1	i	0.99
C=CCNc1nc(Nc2ccc([N+](=O)[O-])cc2)nc(OC)n1	103	-4	-7	184	.	i	0.72
CS(=O)(=O)N1CCC(C(=O)NCCC2=CCCCC2)CC1	103	-9	31	96	-1.9	i	0.97
O=C(NCc1ccc(F)cc1)c1cc(S(=O)(=O)N2CCOCC2)ccc1F	102	-7	-210	97	-1.6	i	1
O=C(Nc1cccn2ncnc12)C(Cl)Cl	107	4	-2	49	-2.2	.	.
COCCNC(=O)Nc1ccc(F)cc1	101	-4	-21	117	.	i	0.95
CCOc1ccccc1-c1nc(-c2ccc(NC(=O)Cc3ccc(OC)cc3)cc2)no1	104	-9	.	.	3.5	i	0.72
CCOc1cc(CNCc2ccc(C(=O)O)cc2)ccc1OC	98	1	.	.	.	i	1
NCCCC[C@H]1CNC(=S)N1CCc1cccc(F)c1	97	12	.	.	.	i	1
O=C(Nc1ccc(S(=O)(=O)N2CCCC2)cc1)c1ccc2c(=O)n3c(nc2c1)CCCCC3	101	-2	-35	94	-0.6	i	0.91
O=C(CCN1C(=O)c2ccccc2C1=O)NNC(=O)c1ccc(Cl)cc1Cl	101	-3	30	112	-1.1	i	0.96
CCCn1c(=O)c2ccccc2n2c(SCC(=O)N3CCc4ccccc4C3)nnc12	106	3	.	.	0.9	i	0.86
COc1ccc(Cl)cc1NC(=O)NCc1ccco1	105	4	.	.	.	i	1.1
Cc1cc(C(=O)N/N=C/c2cn[nH]c2-c2ccccc2)cs1	115	0	0	98	-1.1	i	0.96
c1ccc(-n2cnnc2SCc2cn3ccsc3n2)cc1	111	-6	.	.	-0.9	i	0.99
Cc1ccc(S(=O)(=O)NC(C)(C)CSc2ccccn2)cc1	13*	-3	25	142	-0.9	i	1
O=C(c1ccc(-n2cccn2)cc1)N1CCc2ccccc2C1	100	.	.	.	.	i	1
COc1ccc(C)cc1NC(=O)CCCN1C(=O)CCC1=O	111	-5	-36	88	-2.0	i	1.1
CC(=O)C1=C(C)Nc2ncnn2C1c1ccccc1OCc1ccccc1 (stereo not given)	108	-2	33	72	-0.5	i	0.97
CCOC(=O)C1=C(O)C(=O)N(Cc2cccnc2)C1c1ccc(C)cc1 (stereo not given)	109	8	.	.	.	i	1
COc1ccc(CCC(=O)NC2=NCCS2)cc1OC	112	-4	43	116	-0.3	i	1
Cc1ccc(C)c(N2CC(O)(c3cccs3)[N+]3=C2CCCC3)c1 (stereo not given)	114	-6	-14	128	.	i	0.86
COc1ccc2c(c1)CCCN2C(N)=O	96	-5	-29	98	-2.6	i	0.81
COc1ccccc1S(=O)(=O)Cc1ccc(C(=O)NCCN2CCCCCC2)o1	87	-3	50	83	-2.0	i	0.9
O=C(O)c1ccc(/C=N/Nc2nc3ccccc3[nH]2)cc1	102	.	.	.	.	i	0.86

Three compounds out of the list above, sorted by their value in RGS16-Gao HTS, descending:
Molecule	RGS16-Gao HTS
COc1ccc(CCC(=O)NC2=NCCS2)cc1OC	112
CCCn1c(=O)c2ccccc2n2c(SCC(=O)N3CCc4ccccc4C3)nnc12	106
C=CCNc1nc(Nc2ccc([N+](=O)[O-])cc2)nc(OC)n1	103

Part of the list above, reformatted:
O=C(O)c1ccc(/C=N/Nc2nc3ccccc3[nH]2)cc1
- RGS16-Gao HTS: 102
- PKD1 kinase inh: .
- Insulin prom inh: .
- Insulin prom inh cell count: .
- GALR2 agonist: .
- HSV augment: i
- HSV augment primary fold: 0.86
Cc1ccc(S(=O)(=O)NC(C)(C)CSc2ccccn2)cc1
- RGS16-Gao HTS: 13*
- PKD1 kinase inh: -3
- Insulin prom inh: 25
- Insulin prom inh cell count: 142
- GALR2 agonist: -0.9
- HSV augment: i
- HSV augment primary fold: 1
COc1ccc2c(c1)CCCN2C(N)=O
- RGS16-Gao HTS: 96
- PKD1 kinase inh: -5
- Insulin prom inh: -29
- Insulin prom inh cell count: 98
- GALR2 agonist: -2.6
- HSV augment: i
- HSV augment primary fold: 0.81
O=C(Nc1cccn2ncnc12)C(Cl)Cl
- RGS16-Gao HTS: 107
- PKD1 kinase inh: 4
- Insulin prom inh: -2
- Insulin prom inh cell count: 49
- GALR2 agonist: -2.2
- HSV augment: .
- HSV augment primary fold: .

(listing goes on)
SMILES	RGS16-Gao HTS	PKD1 kinase inh	Insulin prom inh	Insulin prom inh cell count	GALR2 agonist	HSV augment	HSV augment primary fold
Cc1cc(C)cc(N(C(=O)c2csnn2)C(C(=O)NC(C)(C)C)c2ccncc2)c1 (stereo not given)	96	-2	.	.	.	i	1
Cc1ccccc1NC(=S)N1CCCC1	106	17	-13	71	-2.6	i	0.92
O=C(CNc1ccc2ccccc2c1)N/N=C/c1cc2ccccc2nc1Cl	100	8	.	.	-1.2	i	1.1
CCN1CCN(Cc2ccc(NC(=O)Nc3ccccc3OC)cc2)CC1	104	5	-70	97	-1.1	i	0.82
COc1ccc(/C(C)=N/N=C2/NC(=O)CC(C(=O)O)S2)cc1F (stereo not given)	104	.	.	.	.	i	0.89
C/C(CC(=O)Nc1ccc(Cl)c(C(F)(F)F)c1)=N\NC(=O)c1cc2ccccc2cc1O	100	-8	-37	89	0.3	i	0.66
O=C(COC(=O)c1ccc2ccccc2n1)Nc1cccc(S(=O)(=O)NC2=NCCCCC2)c1	102	-2	-100	137	.	i	0.97
COc1ccccc1OCCC(=O)OCC(=O)Nc1cc(S(=O)(=O)N(C)C)ccc1Cl	104	-4	.	.	.	i	0.93
O=C(CN(C1CCCCC1)S(=O)(=O)c1ccccc1)NCc1ccco1	137	-6	-419	83	-0.8	i	0.79
Cc1cc(-c2n[nH]c(=S)n2/N=C/C(Br)=C/c2ccccc2)n[nH]1	98	-9	59	27	0.5	i	0.68
O=C(NC1CCCCC1)c1ccc(COCC(F)(F)F)o1	111	-3	5	143	-0.8	i	0.98
O=C(NC1=NCCS1)c1nc(-c2ccccc2)n(-c2ccccc2)n1	107	2	11	199	0.8	i	0.99
CCN(CC)C(=O)Cn1c(=O)n(-c2ccccc2)c(=O)n1CC(=O)N(CC)CC	104	5	.	.	-1.6	i	0.94
O=C1C(=O)N(Cc2ccco2)C(c2cccs2)/C1=C(\O)c1cccc([N+](=O)[O-])c1 (stereo not given)	96	.	.	.	.	i	0.89
O=S(=O)(c1cccc(-c2cn3cc(Cl)ccc3n2)c1)N1CCOCC1	89	-7	22	84	-1.4	i	1.4
O=C(CSc1nnc(-c2ccco2)n1CC1CCCO1)NC1CCCC1 (stereo not given)	102	-5	7	90	-4.0	i	0.96
CCOc1cc(C(C#N)N2CCOCC2)ccc1OC (stereo not given)	112	-10	43	74	-0.5	i	0.92
Cc1ccc(NC(=O)Cn2cnc3ccccc32)cc1C	100	4	.	.	.	i	0.98
CCOC(=O)c1cnn(-c2ncnc3c2cnn3Cc2ccccc2)c1N	.	-8	-27	137	-1.0	i	1.1
Cc1noc(C)c1-c1nc(CS(=O)(=O)c2ccccc2)no1	104	.	.	.	.	i	0.93
C=C(C)CSc1ncc(-c2cccc(C(F)(F)F)c2)cn1	91	-8	35	88	-2.3	i	0.99
O/N=C/CCn1c(=S)sc2ccccc21	101	-5	17	97	-1.7	i	0.82
Cc1cccc(OCCn2c(-c3ccco3)nc3ccccc32)c1	136	-4	-49	70	0.3	i	0.73
Cc1ccc(C)c(NC(=S)N/N=C2\CCc3ccccc32)c1	47	.	.	.	.	i	1
Cc1c(N=C2Nc3cccc4cccc2c34)c(=O)n(-c2ccccc2)n1C	107	3	-9	136	-1.6	i	0.71

More records:
SMILES	RGS16-Gao HTS	PKD1 kinase inh	Insulin prom inh	Insulin prom inh cell count	GALR2 agonist	HSV augment	HSV augment primary fold
O=C(COC(=O)c1ccc(Br)cc1)NCCc1ccccc1	116	6	59	101	-1.6	i	1
O=C(Nc1ccc(N2CCOCC2)cc1)c1ccc(Cl)nc1	76	-7	71	117	-1.4	i	0.98
O=C(N/N=C/c1cnc(N2CCOCC2)s1)c1ccccc1	102	-6	0	161	.	i	0.89
CCCCCC(=O)NC(=S)Nc1ccc(Cl)cn1	107	-8	-29	49	-0.2	i	1
Cc1cc(C(=O)NCC(=O)OCC(=O)N(C(C)C)C(C)C)ccc1[N+](=O)[O-]	42	7	.	.	-0.4	i	1.1
Cn1nc(-c2ccccc2)c(C(=O)NCC(=O)O)c1Cl	103	1	27	80	.	i	0.9
CCOC(=O)CC(=O)Nc1nnc(CC(C)C)s1	98	1	.	.	-0.8	i	0.95
CCN(CC)CCn1c(SCC(=O)Nc2ccc(F)cc2)nc2c(sc3ccccc32)c1=O	104	-6	.	.	.	i	0.87
COC(=O)CS(=O)(=O)c1ccsc1C(=O)Nc1ccc(F)cc1	111	-11	64	182	.	i	1
CCCOc1nc2c(c(=O)n(C)c(=O)n2C)n1Cc1cccc2ccccc12	63	-4	.	.	-2.3	i	0.92
CCCc1cc(=O)[nH]c(SCCCCN2C(=O)c3ccccc3C2=O)n1	103	109*	50	251	.	i	1.1
C=CCN(c1ccccc1)S(=O)(=O)c1cccc(C(=O)OCC(=O)NC2CC2)c1	103	4	-67	75	.	i	0.88
CCOC(=O)CN(C)Cc1c[nH]c2ccccc12	110	3	-4	110	0.1	.	.
COc1cc(OC)c(C2CC(=O)N3CN(C)CSC3=C2C#N)cc1OC (stereo not given)	71	-6	.	.	-2.0	i	1.1
O=C(NC1CCCc2ccccc21)C1CCN(c2c3c(nc4ncnn24)CCC3)CC1 (stereo not given)	105	-1	-11	102	0.4	i	1
O=C(Nc1ccc(S(=O)(=O)N2CCCCCC2)cc1)c1ccco1	114	0	-47	50	-1.1	i	0.92
O=C1NC(c2ccccc2)C(C(=O)c2cccs2)C(O)(C(F)(F)F)N1 (stereo not given)	98	3	15	144	-3.5	i	0.89
Cc1ccc(N2C(=O)C(NC(=O)c3c(F)cccc3F)(C(F)(F)F)C3=C2CC(C)(C)CC3=O)cc1 (stereo not given)	101	-8	-93	64	-0.6	i	1
O=C(COC(=O)CCOc1ccccc1)Nc1ncc(Cl)cc1Cl	97	-5	0	94	-2.3	i	0.93
COc1ccc(CNC(=O)C2CCCN(c3nc4ccccc4o3)C2)c(OC)c1 (stereo not given)	102	-11	.	.	-3.6	i	0.86
CCCCOc1ccc(CCC(=O)N/N=C/c2ccco2)cc1	100	.	.	.	.	i	1.1
Nc1nnn(CC(=O)N/N=C/c2ccc(Cl)cc2Cl)n1	104	.	.	.	.	i	1.2
Cc1cc(C)cc(OCC(=O)OCC(=O)Nc2c(C)n(C)n(-c3ccccc3)c2=O)c1	145	-3	-60	139	.	i	0.89
N#C/C(=C\c1ccc(OCC(N)=O)cc1)c1ccccc1	127	1	-29	44	-1.1	i	0.99
COc1cccc(C(=O)N2CCN(Cc3cccc(F)c3)CC2)c1	109	3	-10	126	-2.8	i	1

Next records
SMILES	RGS16-Gao HTS	PKD1 kinase inh	Insulin prom inh	Insulin prom inh cell count	GALR2 agonist	HSV augment	HSV augment primary fold
O=C(N/N=C/c1ccc(-c2ccc([N+](=O)[O-])cc2)o1)C(O)c1ccccc1 (stereo not given)	103	4	-29	119	-0.8	i	1.1
S=c1[nH]nc(-c2ccccn2)n1/N=C/c1c(Cl)cccc1Cl	102	.	.	.	.	i	0.94
COc1cc(OC)c2ccc(=O)oc2c1C(CC(=O)N1CCCC(C)C1)c1ccc2c(c1)OCO2 (stereo not given)	99	.	.	.	.	i	0.87
Cc1cc(/C=C2/C(=N)N3C(c4ccccc4)=CSC3=NC2=O)c(C)n1-c1ccccc1	93	-3	.	.	0.5	i	1.1
Cc1ccc(NC(=O)C2CCCN2C(=O)NC2CCCCC2)cc1 (stereo not given)	100	-4	.	.	.	i	0.94
O=C(N/N=C\c1ccc(-c2ccc(Cl)c(Cl)c2)o1)C(=O)N1CCCC1	97	-17	-3	98	-2.1	i	0.97
O=[N+]([O-])c1cccc(S(=O)(=O)N2CCCC2)c1	89	2	-212	79	-1.9	i	0.94
Cc1c(NC2=C(Cl)C(=O)N(c3ccccc3Cl)C2=O)c(=O)n(-c2ccccc2)n1C	102	-9	-81	104	-2.0	i	0.89
COc1ccc(OC)c2[nH]c(=O)c(CCNC(=O)CC(C)C)cc12	98	-4	19	66	-0.7	i	0.92
COc1cc(-c2nnc(SCc3ccccc3Cl)o2)cc(OC)c1OC	101	-2	.	.	1.1	.	.
C#CCNC(=O)C1=C[C@@H](c2csc3ccccc23)[C@H](CCCO)[C@@H](OCC)O1	99	1	.	.	.	i	0.9
Cc1nc(C)n(CC(O)COc2ccc3c(c2)CCC3)n1 (stereo not given)	100	0	26	81	-2.6	i	0.8

Assay outcomes from PubChem.
